High-throughput results (PubChem)
BJeLR viability – MLPCN primary cell-based screen for lethality selective to Ras in HRASV12 cells; BJeLR (HRASV12) viability, CellTiter-Glo ATP luminescence, 48 h; reference of the scale not given here; inhibition, % (no concentration beside the values); 0.17% of 300,000 active; AID 1554, 2009;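 active means replicate mean above 50%; inconclusive means above 50% but judged a plate artefact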;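 further: 50 nL library stock added to about 25 µL; numbers are from one replicate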
Mtb hypoxia inh – PubChem AID 1159583; M. tuberculosis hypoxia-regulated fluorescent reporter, fluorescence; 0.1% of 300,000 active; fluorescence inhibition, % (concentration not given with the values);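 active means 35 to 45% if threefold the growth effect, above 45% if 1.5-fold the growth effect; inactive means the rest, general growth blockers included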;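 further: wells of about 50 µL received 100 nL stock; 0% = vehicle wells and 100% = reference inhibitor wells; whole bacteria with a GFP reporter of the hypoxia response; strong numbers were not always called active; many hits fall short of the cut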
RN4220 kill – growth inhibition of S. aureus RN4220, primary screen, OD600; 16 h; inhibition, % (test concentration not listed); 0.33% of 330,000 active; AID 1259311, 2017;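 active means z-score of -3 or lower and OD600 up to 0.18 on both plates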;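 further: plate controls were untreated cells for no effect and reference antibiotic for full effect; stock transfer was 100 nL into about 80 µL; one replicate is shown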
Sa ugtP lethal – growth inhibition of ugtP-null S. aureus, primary screen, RN4220 ugtP deletion, OD600. 16 h; some inactives read as strong as hits. growth inhibition, % (concentration not given with the values). 0.54% of 330,000 active;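 active means z-score under -3 and OD600 up to 0.15 on both plates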;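 further: plate controls were untreated wells for no effect and antibiotic for full effect; wells of about 80 µL received 100 nL stock; the first replicate is given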
Autofluor counter – counter-screen for toxin protease inhibitors: compound fluorescence; 3.1% of 360,000 active; fluorescence intensity (no concentration beside the values); compound autofluorescence counterscreen, microsphere flow cytometry; stronger effect = higher value;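 active means at least 3 SD above the mean of all compounds, about 16000 in these data; inconclusive means too few beads counted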;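 further: 100 nL of 1 mM stock went into each well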
PrP UTR inh – inhibition of PrP 5' UTR reporter expression; cell-based PrP 5' UTR mRNA reporter, plate reader; 0.35% of 340,000 active; inhibition, % (test concentration not listed);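 active means every replicate at 50% or more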;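 further: 0 = median of the neutral control wells; tested in H4 reporter cells; numbers are from one replicate; inactives centre near -14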
Mtb hypoxia inh growth – also measured in Mtb hypoxia inh; calls as there; growth inhibition, %; measured here: M. tuberculosis growth (absorbance);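 0% = vehicle and 100% = reference antibiotic; read after six days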
* hit, by the source's call; ? = inconclusive; . = no result given.

SMILES	BJeLR viability	Mtb hypoxia inh	Mtb hypoxia inh growth	RN4220 kill	Sa ugtP lethal	Autofluor counter	PrP UTR inh
Nc1nc(SCC(=O)O)[nH]c(=O)c1NC(=O)c1ccccc1F	-1	1	1	3.7	2	2893	-37
Cc1ccc(C2(C)CC(C)(C)N(C(=O)CSc3nnc(C)s3)c3ccccc32)cc1 (configuration not stated)	-3	-10	12	0.2	28	7529	-3
O=S1(=O)N=CN(Cc2cccc(F)c2)c2ccccc21	2	3	5	-4.1	-9	10408	-10
COc1ccccc1C(=O)O/N=C(/C)c1ccc(N2C(=O)C3CCCCC3C2=O)cc1 (configuration not stated)	2	.	.	.	.	3713	-6
O=S(=O)(c1ccc2nc(SCc3ccc(Cl)cc3)[nH]c2c1)N1CCOCC1	1	-1	14	5.3	-14	2606	-18
CN(CC(=O)NC(=O)NC1CCCCC1)CC(=O)Nc1ccc(OC(F)(F)F)cc1	.	1	-2	7.0	-4	9969	-13
COC(=O)[C@@]1(C)[C@H]2C(=O)N(Cc3ccccc3)C(=O)[C@H]2[C@H]2CN=C(SCC(=O)c3ccccc3)N21	.	3	9	0.0	-19	3783	-23
CCOC(=O)c1ccccc1NC(=O)CSc1nnc(C(C)C)n1CC	-13	.	.	1.3	2	3516	-10
O=C(NN=Cc1ccc(F)cc1)c1cc(-c2ccccn2)nc2ccccc12	.	-2	1	2.1	8	.	.
Cc1occc1C(=O)NNC(=O)Cc1ccccc1	0	4	3	2.5	7	13442	-26
COc1ccc(NC(=S)NCCc2ccc(F)cc2)c(OC)c1	3	2	4	7.8	7	2518	-20
CCC(CC)C(=O)Nc1c2c(nn1-c1ccc(C)cc1)CS(=O)(=O)C2	5	5	-7	5.8	6	3150	1
OCCC1CN(CCCc2ccccc2)CCN1CCc1ccccc1 (configuration not stated)	-7	0	4	2.1	10	4434	-27
Cc1ccc(CC2C(=O)N(c3cc(Cl)ccn3)C(=O)C2C)cc1 (configuration not stated)	-13	2	-6	3.1	9	?	-17
Cc1cccc(-n2c(O)c(C=Nc3ccccc3)c3ccccc3c2=O)n1	10	8	-4	-0.8	-9	5440	-8
C=CCNC(=S)NC1CC(C)(C)NC(C)(C)C1	11	4	-1	4.8	6	2542	-14
O=c1[nH]c(=O)n(-c2ccccc2F)c(O)c1/C=C1\C=Nc2ccccc21	-1	.	.	.	.	4154	-9
O=c1cccc(-c2ccc(Br)cc2)o1	-2	.	.	4.2	4	5361	-24
O=C(NCC1CCCO1)c1nc2c(nnn2Cc2ccc(F)cc2)c(=O)[nH]1 (configuration not stated)	-10	-2	6	4.5	-2	10302	-13
COc1cc(OC)c(OC)cc1/C=N/NC(=O)CSc1ccccc1F	-7	.	.	.	.	4589	2

A section taken from the entries so far, as a working copy:
SMILES	BJeLR viability	Mtb hypoxia inh	Mtb hypoxia inh growth	RN4220 kill	Sa ugtP lethal	Autofluor counter	PrP UTR inh
CCC(CC)C(=O)Nc1c2c(nn1-c1ccc(C)cc1)CS(=O)(=O)C2	5	5	-7	5.8	6	3150	1
OCCC1CN(CCCc2ccccc2)CCN1CCc1ccccc1 (configuration not stated)	-7	0	4	2.1	10	4434	-27
Cc1ccc(CC2C(=O)N(c3cc(Cl)ccn3)C(=O)C2C)cc1 (configuration not stated)	-13	2	-6	3.1	9	?	-17

More compounds
SMILES	BJeLR viability	Mtb hypoxia inh	Mtb hypoxia inh growth	RN4220 kill	Sa ugtP lethal	Autofluor counter	PrP UTR inh
COC(=O)c1ccc(S(=O)(=O)N(Cc2ccccc2)Cc2ccccc2)n1C	-2	0	3	3.6	10	4605	-26
O=C(CS(=O)(=O)c1ccc(Cl)cc1)Nc1nnc(-c2cccs2)o1	4	7	3	9.9	5	5585	-8
CN(CC(=O)Nc1c(Cl)cccc1Cl)C(=O)c1cc(S(=O)(=O)N(C)C)ccc1N1CCCC1	1	-11	-6	1.5	4	?	3
COc1cccc(NC(=S)N(CCCN2CCC(C)CC2)Cc2cccs2)c1	2	2	9	13	2	4616	-34
COc1ccc(S(=O)(=O)NCc2cc(=O)n(C)c(=O)n2C)cc1F	-2	6	7	1.0	4	5318	-10
Nc1nc(SCC(=O)Nc2ccc([N+](=O)[O-])cc2)[nH]c(=O)c1NC(=O)c1ccc(Br)o1	-4	.	.	.	.	5741	-5
Cn1ccnc1C1CCCCN1C(=O)c1cc(COc2ccc(F)cc2F)on1 (configuration not stated)	-1	0	6	2.2	10	3554	-33
O=C(CSC1=NCCN1)NC12CC3CC(CC(C3)C1)C2	9	13	9	8.2	1	2845	-11
CCOC(=O)N1CCN(C(=O)C(C)NC(=O)c2ccco2)CC1 (configuration not stated)	0	5	6	-0.9	4	3059	-14
CC1(C)C(=O)Nc2ccccc2N1C(=O)COC(=O)CCSc1ccccc1	6	13	-3	5.1	6	15683	-22
COc1ccc(OCC(=O)Nc2cc(-c3nn(C)c(=O)c4ccccc34)ccc2OC)cc1	8	-4	-2	6.3	3	4607	7
CN(C)CCCN(C(=O)c1ccco1)c1nc2cc3c(cc2s1)OCO3	5	4	1	5.7	18	4492	4
CN(C)S(=O)(=O)N(CC(=O)Nc1ccc2ccccc2c1)c1ccccc1	-8	.	.	0.3	-9	3083	-18
CSc1ncc(Cl)c(C(=O)NCc2ccc3c(c2)OCO3)n1	-5	.	.	7.6	4	2169	10
Cc1csc(SCC(=O)NC(=O)NCCC(C)C)n1	0	-3	-14	7.9	9	4159	-6
CCOC(=O)c1sc2ncnc(NCC(c3cccs3)N(C)C)c2c1C (configuration not stated)	5	7	23	0.9	4	24092*	-27
CC(C)(C)NC(=O)C(OC(=O)c1cccs1)c1ccccc1 (configuration not stated)	-1	10	15	2.6	-1	4075	-26
O=C(Nc1ccc2c(c1)OCO2)c1ccc2c(c1)S(=O)(=O)c1ccccc1C2=O	-4	7	9	4.2	3	3934	-24
CCOC(=O)C1(C(=O)OCC)NC(=O)CC1C (configuration not stated)	.	6	11	2.6	4	4170	-5
CC(=O)C1C(c2ccc(Cl)cc2)c2c(noc2C)CC1(C)O (configuration not stated)	-1	7	6	3.9	10	3546	.
CCN1C/C(=C/c2ccc(N3CCOCC3)cc2)C(=O)/C(=C/c2ccc(N3CCOCC3)cc2)C1	33	7	-9	1.9	-3	4303	-15
CC(C)C[C@H](NC(=O)Nc1cccc(C(F)(F)F)c1)C(=O)O	8	2	8	2.3	-2	11175	-14
COC(=O)CCCC1=CC2=CC(=O)C(C)(OC(=O)c3cccs3)C(=O)C2=CN1CC1CC1 (configuration not stated)	-9	9	6	7.6	0	3945	-8
COc1cccc(N2CCN(C(=O)C3CCN(S(=O)(=O)c4ccc5c(c4)oc(=O)n5C)CC3)CC2)c1	0	-12	2	-0.2	3	5899	-11
Cc1cccc([C@@H]2[C@@H]3C(=O)N(Cc4ccccc4)C(=O)[C@@H]3[C@]3(Cc4ccc(Cl)cc4)C(=O)N(c4ccc(Br)cc4)C(=O)N23)c1	0	.	.	.	.	3658	-15
O=C(Cc1ccccc1)N/N=C/c1ccccc1OCc1ccc(Cl)cc1	-3	.	.	.	.	3281	-23
CC(C)CC1CN=C(Nc2ccccc2)N1CC1CCC1 (configuration not stated)	.	5	2	4.4	-7	.	.
CCn1c(CNC(=O)c2ccco2)nnc1SCC(=O)Nc1cc(F)ccc1C	-2	-2	-3	5.1	3	5452	-9
Cc1nc(N2CCN(C(=O)c3ccco3)CC2)c(C#N)c2c1CCCC2	-5	1	-2	2.9	2	5472	-31
O=C(CCNS(=O)(=O)c1ccccc1)NNC(=O)c1cccc(Cl)c1	.	10	10	3.3	5	.	.
Cc1ccc(C=NN2CCN(Cc3ccccc3)CC2)o1	.	7	2	-0.1	3	.	.
Cc1ccc(C(=O)N/C(=C\c2cccs2)C(=O)N2CCOCC2)cc1C	-1	-5	-2	0.9	0	5614	-36
Cc1ccc2c(c1)N(CC(=O)NCCCN1CCOCC1)C(=O)c1cccnc1O2	-11	.	.	1.7	2	4412	-18
CC(Cn1cnc([N+](=O)[O-])n1)=NNC(=O)c1ccncc1	.	.	.	4.7	17	.	.
O=C(OC1CCCCC1=O)c1cc(Cl)ccc1[N+](=O)[O-] (configuration not stated)	-2	12	7	8.7	3	4936	-23
CC1(C)CC(=O)C(C=Nc2ccc3[nH]ncc3c2)=C(O)C1	-2	14	7	2.1	6	4248	-1
CCc1ccc(-n2c(=O)c3c(C)c(C)sc3n(CC(=O)NCC3CCCO3)c2=O)cc1 (configuration not stated)	-7	5	-3	0.5	0	3501	0
COc1ccc(OCCCC(=O)Nc2cccnc2)cc1	1	.	.	-1.1	0	2718	-20
O=C(/C=C/c1ccco1)N(c1ccccn1)c1ccccn1	9	4	4	2.7	6	4263	-3
COc1cc(COCC(O)CN2CCCCC2C)cc(OC)c1OC (configuration not stated)	-4	6	-10	1.9	6	3988	-23
O=C(NCc1ccc(Cl)cc1)C(=O)c1c[nH]c2ccccc12	0	1	6	1.5	-10	2397	-17
CCOC(=O)N=S(=O)(Oc1ccc([N+](=O)[O-])cc1)c1ccccc1 (configuration not stated)	-11	0	3	8.8	7	7472	-25
CC(/C=C1\SC(=S)N(CC(=O)N2CCN(c3ccccc3)CC2)C1=O)=C\c1ccccc1	-8	-5	7	-2.3	4	2071	-15
CCOc1ccc(C(=O)OC(C)C(=O)N2CCN(Cc3ccccc3)CC2)cc1 (configuration not stated)	.	-5	1	-1.6	2	3410	-13
O=C(Nc1ccc2ccccc2n1)c1ccccc1Cl	10	-1	0	-1.6	2	3934	-40
CCOC(=O)c1cnc(SCC(=O)c2ccccc2)nc1N	-9	9	11	4.7	-12	24281*	-34
O=C(O)CN1C(=O)C2(OCCCO2)c2ccccc21	-6	2	5	4.5	4	23379*	-18
CN(CC(=O)Nc1ccncc1)S(=O)(=O)c1ccc(Cl)cc1	5	1	8	3.7	5	10734	.
CCCCNC(=O)C1CCCN1S(=O)(=O)c1cccc2cccnc12 (configuration not stated)	.	8	11	1.0	-2	.	.
Cc1ccccc1C(=O)ON=Cc1c(N2CCOCC2)n(C)c2ccccc12	.	.	.	5.8	12	.	.
CC1CCCN(Cc2c(O)ccc3c2O/C(=C\c2ccco2)C3=O)C1 (configuration not stated)	-8	1	-3	2.2	2	2688	-5
CCc1ccc(OCCCC(=O)Nc2nnc(C3CCCO3)s2)cc1 (configuration not stated)	-6	12	2	8.2	7	4112	-2
Cc1ccc(SC(C)C(=O)Nc2cccc(N(C)S(C)(=O)=O)c2)cc1 (configuration not stated)	-1	4	4	-1.7	0	19657*	-19
COc1cc2c(Cc3ccccc3)cncc2cc1O	.	-4	-3	0.0	-3	3422	-44
CCCCN(Cc1cccs1)S(=O)(=O)c1csc(C(N)=O)c1	1	-5	-7	9.1	5	5237	-6
CCOc1cccc(/C(O)=C2/C(=O)C(=O)N(Cc3ccco3)C2c2ccncc2)c1 (configuration not stated)	-3	12	7	4.7	19	4589	-7
CN(c1ccccc1)S(=O)(=O)c1cccc(NC(=O)CSc2nnc(C3CC3)n2C)c1	.	-2	-7	7.1	10	2788	-1
CN(C)N=C1c2cc(S(=O)(=O)N(C)C)ccc2-c2ccc(S(=O)(=O)N(C)C)cc21	6	3	5	5.6	5	5209	-2
N#Cc1ccccc1Sc1ccccc1C(=O)N1CCOCC1	5	4	4	-15	-9	3355	-12
COc1cc(NS(=O)(=O)c2ccc3[nH]c(=O)oc3c2)cc(OC)c1	-2	14	3	7.6	9	3400	-20
COC(=O)c1ccc(C(=O)OC)c(NC(=S)N2CCN(c3ccccc3F)CC2)c1	-1	-4	5	-8.7	-9	7141	-19
O=C(CN1C(=O)COc2ccccc21)NCC1CCCO1 (configuration not stated)	1	1	4	5.2	15	3801	-20

A draw from above in order of length of the SMILES, smallest number first:
SMILES	BJeLR viability	Mtb hypoxia inh	Mtb hypoxia inh growth	RN4220 kill	Sa ugtP lethal	Autofluor counter	PrP UTR inh
COc1cc2c(Cc3ccccc3)cncc2cc1O	.	-4	-3	0.0	-3	3422	-44
O=C(Nc1ccc2ccccc2n1)c1ccccc1Cl	10	-1	0	-1.6	2	3934	-40
CCCCN(Cc1cccs1)S(=O)(=O)c1csc(C(N)=O)c1	1	-5	-7	9.1	5	5237	-6
CCCCNC(=O)C1CCCN1S(=O)(=O)c1cccc2cccnc12 (configuration not stated)	.	8	11	1.0	-2	.	.
Cc1ccccc1C(=O)ON=Cc1c(N2CCOCC2)n(C)c2ccccc12	.	.	.	5.8	12	.	.

Rows are unselected; overall some 4% were active at least once.
